Source: PubChem BioAssay
Mtb H37Rv = Mycobacterium tuberculosis H37Rv growth inhibition, cell based, confirmatory dose response (AID 1949). M. tuberculosis H37Rv growth inhibition. most inactive calls were filed without a number and no value below 0 was filed. inhibition, % at 10 µg/mL, or IC50 in µg/mL where a hit was titrated. 1.6% of 100,000 active;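 active = confirmed in a dose series; inconclusive = about 50% or more but not retested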;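 also: bacteria grown 7 days with compound before Alamar blue readout; 0% = untreated bacteria and 100% = reference antibiotic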
* marks the source's active call; other numbers are inactive results. Not all compounds are listed. The share of hits here may be higher or lower than overall.

Cc1occc1C(=O)NN1C(=O)c2ccccc2C1=O was read as Mtb H37Rv inactive.
Screening COc1ccc(COc2ccccc2C(=O)Nc2ccccn2)cc1[N+](=O)[O-] returned Mtb H37Rv inactive.
O=C1C2CCCCC2C(=O)N1Cc1cccnc1 (stereo not drawn) was read as Mtb H37Rv inactive.
`COc1cc(C(=O)NCCN2CCCC2)cc(OC)c1OC` gave Mtb H37Rv inactive.
Screening COc1ccc(OC)c(S(=O)(=O)Nc2cc(C)ccc2OC)c1 returned Mtb H37Rv inactive.
For CC(=O)c1ccc(N2CCN(C(=O)COc3ccc(F)cc3)C(C)C2)c(F)c1 (stereo not drawn) the results were Mtb H37Rv 1%.
For Cc1cc(Cl)ccc1NC(=S)N1CCC(O)CC1 the results were Mtb H37Rv inactive.
`CC(=O)Oc1c(C)cc2sc3ccccc3c(=O)c2c1C` gave Mtb H37Rv inactive.
Screening CCc1cc(=O)oc2cc(OS(C)(=O)=O)ccc12 returned Mtb H37Rv 0%.
For Cc1cc(C)cc(C(=O)NC(=S)Nc2cccc(NC(=O)c3cccs3)c2)c1 the results were Mtb H37Rv inactive.
For COc1ccc(C(=O)N2CCC(C(=O)Nc3cccc(C(F)(F)F)c3)CC2)cc1 the results were Mtb H37Rv inactive.
For CCc1nc(N)c(C#N)c(-c2ccco2)c1C the results were Mtb H37Rv inactive.

Reprinted from the results shown (2 entries):
Cc1occc1C(=O)NN1C(=O)c2ccccc2C1=O was read as Mtb H37Rv inactive.
Screening COc1ccc(COc2ccccc2C(=O)Nc2ccccn2)cc1[N+](=O)[O-] returned Mtb H37Rv inactive.

Next section:
Screening CC12CCC(C(=O)Oc3ccc4ccccc4c3)(C(=O)C1=O)C2(C)C (stereo not drawn) returned Mtb H37Rv inactive.
Screening O=C(CNC(=O)c1ccc(Br)o1)OCc1ccc(Cl)cc1 returned Mtb H37Rv inactive.
For O=C(O)C(Cc1c[nH]c2ccccc12)NC(=O)C12CC3CC(CC(C3)C1)C2 (stereo not drawn) the results were Mtb H37Rv inactive.
For Cc1cc(=O)oc2cc(NC(=S)N3CCN(c4ncccn4)CC3)ccc12 the results were Mtb H37Rv 3%.
For CC(=O)c1ccccc1OCC(=O)c1ccc(C)c(C)c1 the results were Mtb H37Rv 1%.
`COc1ccc(-c2coc3cc(O)cc(O)c3c2=O)cc1OC` gave Mtb H37Rv inactive.
`CCOc1cccc(OCCCCNCCN)c1` gave Mtb H37Rv inactive.
Screening COc1ccc(OC)c(NC(=O)C2C3C=CC(O3)C2C(=O)O)c1 (stereo not drawn) returned Mtb H37Rv inactive.
For Cc1cc(OC(=O)N2CCOCC2)ccc1OC(=O)N1CCOCC1 the results were Mtb H37Rv inactive.
Screening CCOC(=O)c1ccc(NC(=O)Nc2nc3c(s2)CCCC3)cc1 returned Mtb H37Rv 6%.
Screening CCc1cccc(CC)c1NC(=O)CCCOc1ccccc1 returned Mtb H37Rv inactive.
Screening COc1ccc(-n2c(SCC(C)=O)nc3sc(C)c(C)c3c2=O)cc1 returned Mtb H37Rv inactive.

Continued; it opens with the five that closed the last part.
Screening COc1ccc(OC)c(NC(=O)C2C3C=CC(O3)C2C(=O)O)c1 (stereo not drawn) returned Mtb H37Rv inactive.
For Cc1cc(OC(=O)N2CCOCC2)ccc1OC(=O)N1CCOCC1 the results were Mtb H37Rv inactive.
Screening CCOC(=O)c1ccc(NC(=O)Nc2nc3c(s2)CCCC3)cc1 returned Mtb H37Rv 6%.
Screening CCc1cccc(CC)c1NC(=O)CCCOc1ccccc1 returned Mtb H37Rv inactive.
Screening COc1ccc(-n2c(SCC(C)=O)nc3sc(C)c(C)c3c2=O)cc1 returned Mtb H37Rv inactive.
COc1ccccc1/C=C(/C#N)c1ccc(Br)cc1 was read as Mtb H37Rv inactive.
`COCCCNc1oc(-c2ccccc2Cl)nc1C#N` gave Mtb H37Rv inactive.
For CCc1c(C)sc(NC(=O)C(c2ccccc2)c2ccccc2)c1C(N)=O the results were Mtb H37Rv inactive.
Cc1cc(=O)oc2cc(OCC3CC(c4ccccc4)=NO3)ccc12 (stereo not drawn) was read as Mtb H37Rv 2%.
Screening CCCOc1c(Cl)cc(CNCCN(C)C)cc1OC returned Mtb H37Rv 47%.
Screening CC(C)(C)c1ccc(C(=O)N2CCC(C(=O)NCCC3=CCCCC3)CC2)cc1 returned Mtb H37Rv 1%.
Screening CCc1cc(=O)oc2c(C)c(OCC(=O)c3ccc(F)cc3)ccc12 returned Mtb H37Rv 2%.
O=C(O)C(Nc1nc(C(F)(F)F)nc2ccccc12)c1ccccc1 (stereo not drawn) was read as Mtb H37Rv inactive.
`O=C(CSc1ncccn1)Nc1sc2c(c1C(=O)Nc1ccccc1)CCCC2` gave Mtb H37Rv inactive.
Screening COC(=O)c1cc(Cc2ccccc2)sc1NC(=S)N1CCN(c2ccccn2)CC1 returned Mtb H37Rv 9%.
For O=C1CCCN1c1ccc(CNC2CC(=O)N(c3ccc(Cl)cc3)C2=O)cc1 (stereo not drawn) the results were Mtb H37Rv inactive.
Screening CCN(C1CCCCC1)S(=O)(=O)c1cc(OC)c(Cl)cc1OC returned Mtb H37Rv 6%.

Six structures out of the list, arranged by count of non-hydrogen atoms, highest first:
Screening COC(=O)c1cc(Cc2ccccc2)sc1NC(=S)N1CCN(c2ccccn2)CC1 returned Mtb H37Rv 9%.
Screening CC(C)(C)c1ccc(C(=O)N2CCC(C(=O)NCCC3=CCCCC3)CC2)cc1 returned Mtb H37Rv 1%.
Screening CCc1cc(=O)oc2c(C)c(OCC(=O)c3ccc(F)cc3)ccc12 returned Mtb H37Rv 2%.
Screening CCN(C1CCCCC1)S(=O)(=O)c1cc(OC)c(Cl)cc1OC returned Mtb H37Rv 6%.
`COCCCNc1oc(-c2ccccc2Cl)nc1C#N` gave Mtb H37Rv inactive.
COc1ccccc1/C=C(/C#N)c1ccc(Br)cc1 was read as Mtb H37Rv inactive.

Next section:
For CCOCc1nnc(NC(=O)c2ccco2)s1 the results were Mtb H37Rv inactive.
Fc1ccccc1CNCCC(c1ccccc1)c1ccco1 (stereo not drawn) was read as Mtb H37Rv inactive.
For CC(C)COc1ccccc1CNCc1ccccc1 the results were Mtb H37Rv 0%.
Screening COC(=O)c1ccccc1NC(=O)CSc1nnc(CNC(=O)c2ccc(Cl)cc2)n1-c1ccccc1 returned Mtb H37Rv inactive.
COc1cccc(NC(=O)C2CCN(C(=O)c3ccc(F)cc3)CC2)c1 was read as Mtb H37Rv inactive.
For Cc1ccccc1-c1cc2nc3c(c(=O)n2[nH]1)SCC3 the results were Mtb H37Rv inactive.
Cc1ccc(-c2noc(CN3CCOCC3)n2)cc1 was read as Mtb H37Rv inactive.
COc1ccc2[nH]cc(CCNC(=O)c3ccc4ccccc4n3)c2c1 was read as Mtb H37Rv inconclusive.
`CC1CCN(c2ccc(NC(=O)c3ccc(C#N)cc3F)cc2)CC1` gave Mtb H37Rv inactive.
For COc1ccc(NC(=S)NNC(=O)OC(C)(C)C)cc1OC the results were Mtb H37Rv inactive.
For Cc1cccc(NC(=O)CCCN(C)S(=O)(=O)c2ccc(Cl)cc2)c1C the results were Mtb H37Rv inactive.
For Cc1ccc2[nH]c3c(c2c1)CCCC3N (stereo not drawn) the results were Mtb H37Rv 12%.
For c1ccc(CCNc2nc3ccccc3[nH]2)cc1 the results were Mtb H37Rv 2.9µg/mL*.
Screening O=S(=O)(Nc1nnc(C(F)(F)F)s1)c1ccccc1 returned Mtb H37Rv 1%.
`COc1ccc(C(=O)Nc2ccccc2)cc1S(=O)(=O)N1CCN(C)CC1` gave Mtb H37Rv inactive.
For COc1c(Cl)cc(C(=O)NCc2ccccc2)cc1Cl the results were Mtb H37Rv inactive.
O=C(Oc1ccc2c3c(c(=O)oc2c1)CCC3)c1cccs1 was read as Mtb H37Rv 8%.
Screening COc1ccc(C(=O)COc2ccc3c4c(c(=O)oc3c2C)CCC4)cc1F returned Mtb H37Rv inactive.
Screening O=C(NNC(=S)NCc1ccc(Cl)cc1)c1ccc(-n2cccc2)cc1 returned Mtb H37Rv inactive.
Cc1cc(C)n(-c2nc3sc4c(c3c3n[nH]c(=S)n23)CC(C)(C)OC4)n1 was read as Mtb H37Rv inactive.
Nc1ccc(Oc2ccc3c(c2)C(=O)N(CC2CCCO2)C3=O)cc1 (stereo not drawn) was read as Mtb H37Rv 0%.
`O=c1[nH]cnc2ccc(Br)cc12` gave Mtb H37Rv inactive.
O=C(Nc1ccncc1)c1ccc2c(c1)C(=O)N(C1CCCCC1)C2=O was read as Mtb H37Rv inactive.
O=C(CN1C(=O)c2ccccc2S1(=O)=O)NCCC1=CCCCC1 was read as Mtb H37Rv inactive.
`COC(=O)c1ccc(NC(=O)CSc2nnc(COc3ccc4ccccc4c3C)n2C)cc1` gave Mtb H37Rv 23%.
C=CCc1cc(C=O)cc(OCC)c1OCc1ccccc1Cl was read as Mtb H37Rv 0%.
CCC(=O)Nc1ccc(NC(=S)NC(=O)c2ccccc2OC)cc1 was read as Mtb H37Rv 5%.
Screening O=C(CC1OCC2CCCCN2C1=O)Nc1ccc(F)cc1 (stereo not drawn) returned Mtb H37Rv inactive.
CSc1ncc(Cl)c(C(=O)Nc2nnc(SC/C=C/c3ccccc3)s2)n1 was read as Mtb H37Rv inactive.
Screening CCOc1ccc(-c2[nH]ncc2-c2ccccc2)c(O)c1C returned Mtb H37Rv 4.4µg/mL*.
Cc1ccc(NC2CC(=O)N(c3ccc(N4CCCCC4)cc3)C2=O)cc1 (stereo not drawn) was read as Mtb H37Rv inactive.
For Cc1ccc(N2CCN(C(=O)c3cccc([N+](=O)[O-])c3)CC2)cc1Cl the results were Mtb H37Rv 4%.
`CCCNC(=O)c1ccccc1NC(=O)c1ccc(-c2ccccc2)cc1` gave Mtb H37Rv 24%.
Screening CCn1c(SCC(=O)Nc2ccc([N+](=O)[O-])cc2)nnc1-c1ccc(C)cc1 returned Mtb H37Rv inactive.
`O=C(CNS(=O)(=O)c1ccccc1)NCc1ccccn1` gave Mtb H37Rv inactive.
COc1ccc(C(=O)NC(=S)N(C)Cc2ccccc2)cc1Br was read as Mtb H37Rv inactive.
For CC(=O)Nc1ccc(S(=O)(=O)N2CCN(Cc3cccc4ccccc34)CC2)cc1 the results were Mtb H37Rv 1%.
COCCn1c(Cc2ccccc2)nnc1SCC(=O)Nc1cc(Cl)cc(Cl)c1 was read as Mtb H37Rv inactive.
CCC(=O)N1CCN(c2ccc(Cl)cc2NC(=O)CC23CC4CC(CC(C4)C2)C3)CC1 was read as Mtb H37Rv 7µg/mL*.
CCC(C)C(NC(=O)c1ccccc1NC(=O)c1ccc(OC)cc1)C(=O)NCc1ccccc1 (stereo not drawn) was read as Mtb H37Rv inactive.
For CCc1ccc(OCCCC(N)=O)cc1 the results were Mtb H37Rv 2%.
Screening O=C(NCc1ccco1)C(=O)Nc1ccc(Br)cc1 returned Mtb H37Rv inactive.
COC(=O)c1cc(NC(=O)c2cc3ccccc3cc2OC)cc(C(=O)OC)c1 was read as Mtb H37Rv inactive.
For CCOc1cc(C(=S)N2CCOCC2)ccc1OC(=O)c1cccc([N+](=O)[O-])c1 the results were Mtb H37Rv 2%.
Screening COc1ccc(Cl)cc1NC(=S)NCc1cccnc1 returned Mtb H37Rv inactive.
`CC(=O)c1ccc(NC(=O)Nc2ccc3c(c2)nnn3C)cc1` gave Mtb H37Rv inactive.
For COC(=O)c1ccc(C(=O)OC)c(NC(=S)N2CCc3ccccc3C2)c1 the results were Mtb H37Rv inactive.
Cn1c(Cc2cccc3ccccc23)nnc1SCC(=O)N1CCN(c2cccc(Cl)c2)CC1 was read as Mtb H37Rv 3%.
For Cc1ccc(NC(=O)COc2ccc(S(=O)(=O)NC3CCCCC3)cc2)c(C)c1 the results were Mtb H37Rv inactive.
`COc1ccc(NC(=O)C2=C(C)NC(=S)NC2c2cccc(OC)c2OC)c(OC)c1` (stereo not drawn) gave Mtb H37Rv inactive.
For Brc1ccc(-c2cnc3ccccc3n2)cc1 the results were Mtb H37Rv inactive.
For Cc1ccc(OCCCCN2CCc3ccccc3C2)cc1 the results were Mtb H37Rv 3%.
COc1cccc(N(CC(=O)Nc2ccc(F)c(Cl)c2)S(=O)(=O)c2ccc(C)cc2)c1 was read as Mtb H37Rv inactive.
COc1cc(OC)c(NC(=O)C(C)Sc2ccc(C)cc2)cc1Cl (stereo not drawn) was read as Mtb H37Rv 2%.
NC(N)=NC(N)=Nc1ccc2ccccc2c1 was read as Mtb H37Rv inactive.
Screening CCOC(=O)COc1nc(C)cc(C)c1C#N returned Mtb H37Rv inactive.
CS(=O)(=O)N(CC(=O)N1CCC(Cc2ccccc2)CC1)c1cccc([N+](=O)[O-])c1 was read as Mtb H37Rv inactive.
`COc1ccc(S(=O)(=O)N2CCC(C(=O)Nc3cccc(Cl)c3)CC2)cc1OC` gave Mtb H37Rv 42%.
For COc1cccc(NC(=O)c2cccs2)c1 the results were Mtb H37Rv inactive.
For COc1ccc2c(c1)c(=O)oc1cc(OCC(=O)c3ccc(Cl)cc3)ccc12 the results were Mtb H37Rv inactive.
`COc1ccc(/C=C(\C#N)c2nc3cc(C(F)(F)F)ccc3s2)cc1` gave Mtb H37Rv inactive.
Screening CCN(CC)c1nc(SCC(=O)O)nc(N(CC)CC)n1 returned Mtb H37Rv inactive.
For Cc1c(NC(=O)COc2ccc(C(C)(C)C)cc2)cccc1-c1nc2ncccc2o1 the results were Mtb H37Rv inactive.
Screening COc1cc(C(=O)Oc2ccc3[nH]cc(CCN4C(=O)c5ccccc5C4=O)c3c2)cc(OC)c1OC returned Mtb H37Rv 1%.
Screening CCc1nc2sc(C(=O)c3ccccc3)c(N)c2cc1C returned Mtb H37Rv inactive.
`COc1ccc(NC(=O)CSCc2c(Cl)cccc2Cl)cc1OC` gave Mtb H37Rv inactive.
S=C(c1ccc2c(c1)OCO2)N1CCCC1 was read as Mtb H37Rv 3%.
COc1cc(Br)c(/C=C2\C(=O)NC(=O)N(c3ccccc3)C2=O)cc1OC was read as Mtb H37Rv inactive.
Screening COc1ccc(S(=O)(=O)N2CCCCCC2)cc1Cl returned Mtb H37Rv inactive.
Screening CCCC(=O)Nc1ccccc1NC(=O)c1c(Cl)cccc1Cl returned Mtb H37Rv inactive.
Screening O=C(c1ccc2c(=O)n(CCC3=CCCCC3)c(=S)[nH]c2c1)N1CCc2ccccc21 returned Mtb H37Rv inactive.
